Screens (PubChem BioAssay)
Calb biofilm kill: clotrimazole potentiators killing C. albicans biofilm, primary screen, 4-compound mixtures. C. albicans biofilm persisters + clotrimazole, fluorescence viability; primary screen in compound mixtures of four per well. inhibition, % at 7.6 µM. 120,000 tested, 0.02% active. AID 1242, 2008;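 active means inhibition above 30.3% in the primary screen of four-compound pools, then above 30% when the compound was retested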;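 further: compounds exposed to preformed 24 h biofilms for 48 h; the number belongs to the whole pool; some results filed as inactive read as strong as hits; inactives centre near 12; 0% = biofilm with clotrimazole alone and 100% = kill control; retested singly at about 60 µM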
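Incubation: 24 h biofilm formation, then 48 h compound exposure, 37 °C | Material: C. albicans biofilms | Buffer or medium: RPMI/MOPS medium, pH 7.0 | Measured by: 2-h Alamar Blue fluorescence, 535/590 nm excitation/emission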
* = called active by the depositor; & = joins results of further samples.

SMILES | Calb biofilm kill
CC(CCc1ccccc1)NCC(O)c1cccc([N+](=O)[O-])c1 (centres undefined) | -3.6
CCOC(=O)C1(Cc2cccc(OC)c2)CCN(Cc2ccc3c(c2)OCCO3)CC1 | 21.0
Cc1ccc(NC(=S)Nc2ccc(S(=O)(=O)N3CCOCC3)cc2)cc1S(=O)(=O)N1CCOCC1 | 11.3
COC(=O)C1=C(C)N(CCCC(=O)O)C(=O)NC1c1ccc(-c2ccccc2)cc1 (centres undefined) | 20.4
O=C(COC(=O)c1ccc(O)cc1)Nc1ccccc1[N+](=O)[O-] | 3.1
CC(C)Cn1cnc2c1c(=O)n(CC(=O)N(C)C)c(=O)n2Cc1ccccc1 | 11.3
O=S(=O)(c1ccc2ccccc2c1)N1CCCCCC1 | 4.8
COC(=O)c1onc(-c2c(OC)cc(OC)cc2OC)c1C(=O)OC | 13.2
O=C1c2ccccc2C(=O)N1CCc1csc(NNc2nc(CCN3C(=O)c4ccccc4C3=O)cs2)n1 | 14.4
CC1(C)CC(=O)C2=C(C1)NC1=C(C(=O)c3ccccc31)C2c1ccc(Cl)cc1 (centres undefined) | 6.6
Cc1nc(NC(=O)/C=C/c2ccccc2)n[nH]1 | 14.6
Cc1ccc2nc(N/C(=N/S(=O)(=O)c3cccs3)c3ccccc3Cl)sc2c1 | 5.2
CCOc1ccc(C(C)C)cc1S(=O)(=O)N1CCOCC1 | 5.0
COCCNC(=O)c1c[nH]c2ccc(S(=O)(=O)N3CCc4ccccc43)cc2c1=O | 11.3
CCOc1ccc(OCc2cccc(C(=O)N/N=C/c3cccnc3)c2)cc1 | 14.1
COCCCN1C(=O)CS/C1=N\S(=O)(=O)c1ccccc1 | 2.4
Cc1ccc(-n2cccc2/C=C2/NC(=O)N(CC(=O)Nc3cccc(C)c3)C2=O)cc1 | 11.1
CN1CCN(c2ccc(NC(=O)c3ccc(-c4cccc([N+](=O)[O-])c4)o3)cc2)CC1 | 17.2
CCC(=O)N1c2ccccc2C(N(C(C)=O)c2ccccc2)CC1C (centres undefined) | 6.8
O=C1CN(S(=O)(=O)c2ccccc2)c2ccccc2N1 | 6.7
CCOC(=O)c1cc(-c2ccccc2)sc1NC(=O)C(C)OC(=O)c1cccnc1OCC (centres undefined) | 4.6
CCNc1nc(SCC(=O)Nc2ccc(Cl)c(Cl)c2)nc(N(C)C)n1 | 10.8
CC(C)CC(c1nnnn1Cc1cccs1)N1CCN(c2nc3ccccc3s2)CC1 (centres undefined) | 9.7
O=C(CSc1nc2ccccc2[nH]1)N/N=C/C=C/c1ccccc1[N+](=O)[O-] | 12.4
CCOC(=O)Cc1csc(NC(=S)NC(=O)c2ccc(C)cc2)n1 | 5.5
COc1ccc(Cc2nnc(Nc3ccc4c(c3)OCCO4)[nH]c2=O)cc1 | 13.6
Cc1ccccc1C(=O)NNC(=O)C(=O)N1CCCCC1 | 20.7
CS(=O)(=O)N(Cc1ccccc1F)c1ccccc1 | 13.6
CCOC(=O)c1ccc(Nc2cnc3ccccc3n2)cc1 | 19.4
O=C1c2cccc(OCC(=O)N3CCCc4ccccc43)c2CCN1Cc1ccc(Br)cc1 | -9.5
Cc1scc(C(=O)N2CCN(c3ccc(Cl)cc3)CC2)c1C | 11.8
Cc1cc(C)n(C(=O)c2ccc([N+](=O)[O-])c(Cl)c2)n1 | -9.2
COc1ccc(CCn2c(=O)c3cccnc3n(Cc3ccc([N+](=O)[O-])cc3)c2=O)cc1OC | 17.1
O=C(NCC1(c2ccccc2)CCCC1)c1ccccc1Br | 7.2
O=C1c2ccccc2C(=O)N1c1cccc(-c2csc(Nc3ccc4c(c3)OCO4)n2)c1 | 20.6
Cc1ccc(-n2cccn2)c(CN2CCCC(C(=O)c3sccc3C)C2)c1 (centres undefined) | 15.3
O=C(CSc1ccc(-c2ccccn2)nn1)NC1CCCC1 | 10.0
CCN(CC)c1nc(Oc2ccc(=O)[nH]n2)nc(N2CCOCC2)n1 | 6.8
O=[N+]([O-])c1ccccc1S(=O)(=O)NCCc1ccncc1 | 11.3
N/C(=N\OC(=O)Cc1ccc([N+](=O)[O-])cc1)c1ccccn1 | 19.0
Cc1ccc(CSc2nc3nc(C)cc(C)c3c(=O)[nH]2)cc1 | 4.6
Cc1ccccc1/C=N/NC(=O)Cn1nnc(N)n1 | 12.7
COc1ccc(C(=O)Nc2ccc(/C(C)=N/NC(=O)c3ccccc3O)cc2)cc1OC | 3.0
Cc1ccc(S(=O)(=O)N2CCN(CC(O)c3ccccc3)CC2)cc1C (centres undefined) | 1.0
CCOC(=O)C1=C(c2ccccc2)NC(=O)NC1c1cc(Cl)c(O)c(OC)c1 (centres undefined) | 8.9
COc1ccc(-c2[nH]ncc2-c2nc(C)cs2)c(O)c1 | 13.8
CCOC(=O)C1(CCCc2ccccc2)CCN(C(=O)c2ccoc2)CC1 | 5.7
NC(=O)NCc1ccccc1Cl | 3.9
CC(C)C(c1nnnn1CCc1ccccc1)N1CCSCC1 (centres undefined) | 10.0
COc1cc(C2C(C#N)=C(N)Oc3c2c(-c2ccccc2)nn3-c2ccccc2)cc(OC)c1OC (centres undefined) | 17.3
Cc1ccc(S(=O)(=O)N(CCC(=O)Nc2ccc(OC(F)(F)F)cc2)c2ccccc2)cc1 | 7.6
Cc1ccccc1/C=C\c1nc2ccccc2c(=O)[nH]1 | 23.8
CC1Oc2ccccc2N(CC(=O)c2ccc(F)cc2)C1=O (centres undefined) | 10.9
Cc1ccc([N+](=O)[O-])c(OCCN2CCCCCC2)c1 | 18.9
COC(=O)[C@H](Cc1ccccc1)NC(=O)N1CCCCC1 | 28.6
Cc1ccc(CC(=O)NCc2ccc(F)cc2)cc1 | 13.0
O=C(Nc1ccc(Br)cc1)C(c1ccccc1)c1ccccc1 | 23.8
CC(O)c1cccc(NC(=O)CCCc2ccccc2)c1 (centres undefined) | 23.1
CCOc1cc(/C=N/Nc2nc(-c3cccs3)c(NC(C)=O)s2)ccc1O | 24.7
CCO[C@H]1OC(C(=O)NCc2nc3ccccc3[nH]2)=C[C@@H](c2ccc(C(F)(F)F)cc2)[C@@H]1CCCO | 14.7

Other results follow.
SMILES | Calb biofilm kill
Cc1ccc(NC(=S)NN(C)c2nc(C)cnc2C)cc1 | 11.5
O=C(NNC1=Nc2ccccc2SC1)c1cccc([N+](=O)[O-])c1 | 23.2
Cc1ccc(Nc2ncc3c(n2)CC(C)CC3=O)c(C)c1 (centres undefined) | 20.2
COc1cc(C2SC(C)C(=O)N2CCc2ccccc2)cc(OC)c1OC (centres undefined) | 8.6
O=C(O)C1=C[C@@H](c2coc3ccccc3c2=O)C[C@@H](OCc2ccc(CO)cc2)O1 | 11.0
Cc1[nH]c(=S)[nH]c(=O)c1CCC1OCCO1 | -11.1
COc1ccc(OC)c(CNC(=O)c2coc(=O)c3ccccc23)c1 | -6.5
C=CC[n+]1ccn(-c2nc3ccccc3nc2[N-]S(=O)(=O)c2cccs2)c1 | 14.7
COc1ccc(C(=O)Nc2ccc(C)cc2C(=O)c2ccccc2)cc1 | 12.1
CN(C)CC(=O)N1c2ccccc2Sc2ccc(Cl)cc21 | 18.2
O=C1NN(c2ccccc2)C(=O)/C1=C/c1ccc(-c2ccc(Cl)c(C(=O)O)c2)o1 | -4.7
Cc1ccccc1OCC(=O)Nc1cc(S(=O)(=O)N2CCCCC2)ccc1N1CCN(C)CC1 | 10.2
Cc1ccc(S(=O)(=O)NCc2ccc(C(=O)N3CCc4ccccc4C3)cc2)cc1 | 3.3
Cn1cccc1CC(=O)N/N=C/c1ccc(C(C)(C)C)cc1 | 8.1
COc1cc(C)ccc1OCCOCCOc1cc(C)c(C)cc1Br | 17.9
O=C(N/N=C/c1ccc([N+](=O)[O-])cc1)c1cc(C2CC2)nc2ccccc12 | 20.9
Cc1nn(-c2ccccc2)c2c1C(c1ccc(Br)s1)C(C#N)=C(N)O2 (centres undefined) | 8.9
Cc1nc(Sc2ccc(Br)cc2)c(C#N)c(C)c1[N+](=O)[O-] | 5.6
CCOC(=O)C1(Cc2cccc(F)c2)CCN(CCCn2cccn2)CC1 | 22.2
O=C(CSc1ccccc1)N1CCC(N2CCC(C(=O)N3CCCC3)CC2)CC1 | -18.0
CCN(CC)S(=O)(=O)c1cccc(C(=O)N/N=C(\C)c2ccc(O)cc2O)c1 | 20.2
Cc1ccc(S(=O)(=O)N2CCOCC2)cc1NC(=O)CSc1nnc(N)s1 | 5.7
CN(c1cccc(NC(=O)CN(c2cccc(Cl)c2)S(=O)(=O)c2ccc(Cl)cc2)c1)S(C)(=O)=O | 12.3
NNc1nccc(Nc2ccccc2C(=O)O)n1 | 15.5
Cn1c(C(=O)O)c(C=O)c2ccccc21 | 22.2
NC(=O)Nc1ccccc1C(=O)NCCc1ccccc1 | 11.0
Cc1cccn2c(=O)c3cc(C#N)c(=NC(=O)c4ccco4)n(Cc4ccco4)c3nc12 | 13.8
COc1ccc(N=C2SC(CC(=O)Nc3ccccc3)C(=O)N2CCc2ccccn2)cc1 (centres undefined) | 20.1
C/C(=N\Nc1nc(N2CCOCC2)nc(N2CCOCC2)n1)c1cccc([N+](=O)[O-])c1 | 6.5
Cc1ccc(C(=O)NC(=O)CSc2ncccc2C(=O)O)cc1 | 9.4
c1cncc(COC2CCCN(Cc3nc(-c4cccs4)no3)C2)c1 (centres undefined) | -6.6
CCN(CC)CCNC(=O)c1ccc(NC(C)=O)cc1 | 8.4&12.8
COC(=O)c1sc(NC(=O)COc2cccc(C)c2)nc1C | 18.6
O=C(COC(=O)CCc1ccc(S(=O)(=O)N2CCOCC2)cc1)NC(=O)NC1CCCCC1 | 17.4
COc1ccc(CN2CCNC(=O)C2CC(=O)NC2Cc3ccccc3C2)c(OC)c1 (centres undefined) | 25.1
COc1ccc2nc(Nc3nc4cc5c(cc4s3)OCO5)sc2c1 | 7.6
O=C(COn1nnc2ccc(Cl)cc21)Nc1ccc(F)cc1 | 6.4
O=C(NNC(=S)Nc1ccc(F)cc1)C1CC1c1ccc(Cl)cc1 (centres undefined) | 22.2
CC1CC(C#N)N(N(C)C)C1=C(C#N)C#N (centres undefined) | 17.9
Nc1nc(-c2ccc([N+](=O)[O-])cc2)c(C(=O)Nc2ccc(Cl)cc2)s1 | 6.6
COc1cc(CN2CCN(c3ccccc3C)CC2)cc([N+](=O)[O-])c1O | 18.6
O=C(CN(C(=O)c1ccccc1Cl)N1C(=O)C2C3C=CC(C3)C2C1=O)c1cccs1 (centres undefined) | 19.2
N=C1/C(=C/c2coc3ccccc3c2=O)C(=O)N=C2SC(c3ccco3)=NN12 | 7.5
O=C(NCCc1ccccc1)c1ccc(Cl)nc1 | 7.4
Cc1occc1C(=O)NNC(=O)C1CC1 | 22.0
CCC(C(=O)Nc1cccc(C(=O)O)c1)c1ccccc1 (centres undefined) | 4.9
CCN(CC)c1ccc(NC(=O)c2ccccc2Br)cc1S(=O)(=O)Nc1ccccc1OC | 6.7
CCC(C)(C)NC(=O)C(c1cccn1C)N(Cc1ccc(OC)cc1)C(=O)Cn1nnc2ccccc21 (centres undefined) | 13.0
C/C(CC(=O)Nc1ccc(Cl)cn1)=N\NC(=O)Cc1cccs1 | 16.1
CCCCN(CC(=O)NCc1ccc(Cl)cc1)S(=O)(=O)c1ccc2c(c1)OCCO2 | 18.6
COc1ccc(CC2(CO)CCN(CC3=CC[C@H]4C[C@@H]3C4(C)C)CC2)cc1 | 33.6
C/C(=N\Nc1ccc(C(F)(F)F)cn1)c1ccc(S(=O)(=O)NCc2ccco2)cc1 | 12.2
CCC(=O)NC(NC(=S)Nc1ccccc1Br)C(Cl)(Cl)Cl (centres undefined) | 8.7
O=[N+]([O-])c1ccc(CSc2nnc(Cc3ccccc3)o2)cc1 | 19.9
Cc1ccc(C2CC(c3ccccc3)=NN2c2ccccc2)o1 (centres undefined) | 12.8
Cc1ccc(NC(=O)CSc2nnc(CNC(=O)c3ccco3)o2)cc1 | 8.8
CC1CC(C)CN(S(=O)(=O)c2ccc(NC(=S)NC(=O)c3ccccc3)cc2)C1 (centres undefined) | 8.0
CCS(=O)(=O)Nc1ccc2[nH]c(=O)[nH]c2c1 | 13.1
Clc1ccc(SCNc2ccccc2Cl)cc1 | 24.2
O=C(Nc1ccc2oc(-c3ccccc3)nc2c1)c1cccs1 | 6.5

Random excerpt: four compounds from above, in no set order.
SMILES | Calb biofilm kill
CC(C)Cn1cnc2c1c(=O)n(CC(=O)N(C)C)c(=O)n2Cc1ccccc1 | 11.3
COc1ccc(CN2CCNC(=O)C2CC(=O)NC2Cc3ccccc3C2)c(OC)c1 (centres undefined) | 25.1
CCOC(=O)c1cc(-c2ccccc2)sc1NC(=O)C(C)OC(=O)c1cccnc1OCC (centres undefined) | 4.6
O=C(CSc1ccccc1)N1CCC(N2CCC(C(=O)N3CCCC3)CC2)CC1 | -18.0

Going on with the list.
SMILES | Calb biofilm kill
NC(=O)N/N=C/c1cn(-c2ccccc2)nc1-c1cccs1 | 10.1
O=Cc1c(F)cccc1N1CCCC1 | 18.1
COc1ccc(S(=O)(=O)N2CCOC2CNC(=O)C(=O)NCCc2c[nH]c3ccccc23)cc1 (centres undefined) | 14.6
Cc1ccc(CCN2CC(C(=O)NCc3ccc4c(c3)OCO4)CC2=O)cc1 (centres undefined) | 19.1
COc1ccc(-c2nnc(SCC(=O)Nc3nncs3)o2)cc1 | 11.6
Cc1nn(-c2ccccc2)c(N)c1Sc1ccc([N+](=O)[O-])cc1 | 4.0

An excerpt; the hit share may differ from the screen's.
